Screens: PubChem BioAssay, National Center for Advancing Translational Sciences (NCATS)
Vaccinia mCherry: qHTS for Stage-Specific Inhibitors of Vaccinia Orthopoxvirus: mCherry Reporter Primary qHTS; Vaccinia virus mCherry reporter infection, fluorescence; about a quarter of the inactives have no number; Potency, µM (top dose mostly 36.5 µM), for the others: top-dose activity change, negative = inhibition, most hits filed as inhibitors; 310,000 compounds, 0.63% hits; AID 720579, 2013; active = well fitted inhibition curve with a large enough effect; inconclusive = small, poorly fitted or top-dose-only effect; inactive = no such curve, though single readings can be large or run the other way; tested in A549 cells; also: nearly all actives have a fitted effect of over 35% in size; inactives centre near -10
VACV Venus inh: qHTS for Stage-Specific Inhibitors of Vaccinia Orthopoxvirus: Venus Reporter Primary qHTS; Vaccinia virus Venus reporter expression, fluorescence; 330,000 compounds, 0.46% hits; Potency, µM (series often up to 36.5 µM), inactives show at the top dose activity change, negative = inhibition, usual class: inhibitors; AID 720580, 2013; active means well fitted inhibition curve with a large enough effect; inconclusive means small, poorly fitted or top-dose-only effect; inactive means no such curve, though single readings can be large or run the other way; tested in A549 cells; also: nearly all actives have a fitted effect of over 30% in size; inactives centre near -10
Active calls of the source: *; i = inactive; ? = inconclusive; nt = no result given; [ ] = remark or other dose. % is scaled to controls: 0 for no effect and ±100 for the full control effect; potency is read from the fitted curve at half-maximal effect. An unsorted share of the library; overall some 0.82% were active at least once.

SMILES | Vaccinia mCherry | VACV Venus inh
Cc1cccc(NC(=O)c2cc3c(=O)n4ccccc4nc3s2)c1 | -8% | 3%
Cc1[nH]c2ccccc2c1C(=O)C(=O)N1CCC2(CC1)OCCO2 | i | -12%
COc1ccc(C(=O)C(=O)N2CCC(Cc3ccccc3)CC2)cc1OC | ? | -23%
COc1ccc(C(=O)Nc2c(-c3cccs3)c(=O)c3ccccc3n2C)cc1 | -15% | -2%
O=C1NC[C@H](CCCCN2CCN(CCC3CCCCC3)C(=O)C2=O)N(CCC2CCCCC2)C1=O | 4% | -3%
CCOc1ccc(CNC(=O)Nc2ccc3c(c2)N(C)C(=O)c2ccccc2S3)cc1 | ? | -28%
Cc1ccc(-c2cn3nc(N4CCCC(C(=O)NCc5ccccc5F)C4)sc3n2)cc1 (stereo not given) | -16% | -11%
Cc1cc(C)c(S(C)(=O)=O)c(N(C)N)n1 | i | 0%
Cc1c(CC(=O)N2CCCCC2)c(=O)oc2c(C)c(O)ccc12 | 1% | -3%
CCOC(=O)C1=NN(C(=O)c2ccc(OC)cc2)C(O)(c2ccc(Cl)cc2)C1 (stereo not given) | -9% | 0%
O=C(Nc1ccc(OC(F)(F)F)cc1)c1cccn(Cc2ccccc2Cl)c1=O | -21% | -22%
C[C@@H]1CN([C@@H](C)CO)C(=O)c2cc(N(C)C)ccc2O[C@@H](C)CCCCO[C@@H]1CN(C)Cc1ccc2c(c1)OCO2 | ? | ?
O=C1CC(NCCN2CCOCC2)C(=O)N1Cc1ccc(N2CCCC2=O)cc1 (stereo not given) | -9% | -8%
O=C(COc1cccc2ccccc12)N/N=C/c1ccccc1OCc1ccc(C(=O)O)cc1 | -3% | -6%
O=S(=O)(c1ccccc1)N1CC=C(c2ccccc2)CC1 | -2% | -5%
COc1ccc2[nH]c3c(c2c1)[C@@H]1CCN2C(=O)CCC[C@H](C3)[C@H]12 | -8% | -4%
CC(=O)Nc1ccc(S(=O)(=O)Nc2ccc(F)c([N+](=O)[O-])c2)cc1 | ? | ?
CC(=O)Nc1ccc(Nc2c3c4c(cccc4n(C)c2=O)C(=O)c2ccccc2-3)cc1 | -17% | -7%
Cc1ccc(S(=O)(=O)N2CC=C(N)N2)cc1 | i | -1%
CC(=O)OCC(=O)C1CCC2C3CCC4=CC(=O)CC[C@@]4(C)C3CC[C@]12C (stereo not given in full) | i | -18%
CCn1c(-c2cc(OC)ccc2OC)csc1=Nc1c(C)n(C)n(-c2ccccc2)c1=O | nt | ?
CCN1C(C(=O)c2ccccc2)=C(OC(=O)c2ccc(OC)cc2)c2ccccc2S1(=O)=O | -25% | -13%
CCC(=O)N1CCC1(C)C(=O)Nc1ccc2c(c1)CCN2C(C)=O (stereo not given) | i | -8%
O=C(Nc1ccc(S(=O)(=O)N2CCOCC2)cc1)c1ccc2c(c1)OCO2 | -13% | 3%
O=c1cc[nH]c2ccc(OC(F)(F)F)cc12 | i[7.34 µM] | -14%[7.34 µM]
CC1(C)C2([N+](=O)[O-])CN3CC1([N+](=O)[O-])CN(C2)C3c1ccccn1 (stereo not given) | i | -14%
CC(=O)Nc1cccc(-c2csc(C(C)(O)c3cccc(F)c3)n2)c1 (stereo not given) | ? | -28%
CCc1nnc(NC(=O)[C@@H](NS(=O)(=O)c2ccc3c(c2)OCCO3)C(C)C)s1 | -14% | 1%
Cc1onc(-c2ccccc2Cl)c1C(=O)Nc1ccccc1O | -23% | -22%
CN(Cc1ccccc1)C(=O)c1cccc(NC(=O)Cc2ccc(NC(=O)C3CCCN(C(=O)CCc4ccccc4)C3)cc2)c1 (stereo not given) | -17% | -9%
CC(C)(C)C(=O)N1c2ccccc2CCc2ccccc21 | i | -7%
Cc1ccccc1NC(=O)NCc1ccccn1 | -5% | 3%
COc1ccc(C(=O)Nn2cnnc2)cc1 | -10% | -4%
Cc1nc2scc(C)n2c(=O)c1S(=O)(=O)Nc1cccc(O)c1 | -11% | -1%
Cc1noc(C)c1CSCC(=O)N(C)CC(=O)Nc1ccccc1Br | i | -10%
C/C(=N\OCC(=O)Nn1c(=O)[nH]c2ccccc2c1=O)c1ccccc1 | -10% | -10%

The final six entries of the part before lead into the next.
SMILES | Vaccinia mCherry | VACV Venus inh
CC(C)(C)C(=O)N1c2ccccc2CCc2ccccc21 | i | -7%
Cc1ccccc1NC(=O)NCc1ccccn1 | -5% | 3%
COc1ccc(C(=O)Nn2cnnc2)cc1 | -10% | -4%
Cc1nc2scc(C)n2c(=O)c1S(=O)(=O)Nc1cccc(O)c1 | -11% | -1%
Cc1noc(C)c1CSCC(=O)N(C)CC(=O)Nc1ccccc1Br | i | -10%
C/C(=N\OCC(=O)Nn1c(=O)[nH]c2ccccc2c1=O)c1ccccc1 | -10% | -10%
N#CCCCCn1c(-c2cncs2)nc2ccccc21 | -6% | -3%
CCC1CCCCN1CCCNC(=O)c1ccc(CS(=O)(=O)c2ccccc2OC)o1 (stereo not given) | -24% | -17%
Cc1cc(C)cc(-n2nnnc2-c2cn(C)nc2C(F)(F)F)c1 | nt | ?
Cc1ccc(C(=O)N2c3nc(-c4ccco4)nn3C3(CCCCC3)[C@@H]3CCCC[C@@H]32)cc1 | -9% | -13%
CCn1nc(C(=O)NNC(=O)C(Cc2ccccc2)NC(N)=O)c2ccccc2c1=O (stereo not given) | -6% | 12%
FC(F)(F)c1cccc(OCC2CNC(=S)O2)c1 (stereo not given) | ? | ?
COc1cc(-c2noc(C3CC(=O)N(c4cc(C)ccc4C)C3)n2)cc(OC)c1OC (stereo not given) | 0% | 3%
COc1ccc(NC(=O)COC(=O)c2ccc(S(=O)(=O)N3CCCCC3)cc2)c(OC)c1 | i | -1%
O=C1NC[C@H](CCCCN2C[C@H](Cc3ccc(O)cc3)N(CCc3ccc(O)cc3)C(=O)C2=O)N(CC2CCCCC2)C1=O | 4% | 9%
Cc1cccc(NC(=S)NCCc2c[nH]c3ccccc23)c1 | -26% | -18%
Cc1nn(CC(=O)NCCc2ccc(Cl)cc2)c(=O)c2cccn12 | i[7.34 µM] | -5%[7.34 µM]
CCn1c(SCCC(C)C)nnc1-c1c[nH]c2ccccc12 | -15% | -25%
O=C(/C=C/c1cnc2ccccc2n1)NC1CCCCCC1 | -10% | -2%
Cc1cccc(C2c3[nH]c4ccccc4c3CCN2C(=O)CN2CCOC2=O)n1 (stereo not given) | -12% | -16%
CCOC(=O)N1CCN(c2c(N3CCN(c4ccc(OC)cc4)CC3)c(=O)c2=O)CC1 | i | -2%
CCOc1ccc(C(=O)CSCCC(=O)O)cc1 | i | -8%
OC(CNCc1cccs1)c1ccccc1 (stereo not given) | -11% | -6%
C=CCNc1nc2c(c(=O)[nH]c(=O)n2C)n1CCCCC | -25%[1.46 µM] | -5%
Cc1ccc(Sc2ccc(C(=O)NC(C)C)cc2[N+](=O)[O-])cc1 | nt | -8%
O=C1COc2ccc(C(=O)COC(=O)c3ccco3)cc2N1 | -22% | -11%
C[C@H](CO)N1C[C@H](C)[C@@H](CN(C)C(=O)Nc2ccc3c(c2)OCO3)Oc2ccc(NC(=O)C3CCCCC3)cc2C1=O | i | -4%
COc1ccc(CCN2CC(C(=O)NCCc3ccc(C(F)(F)F)cc3)CCC2=O)cc1 (stereo not given) | -18% | -14%
O=C(c1nc2ccccn2c1CN1CCCC(OCc2ccccc2)C1)N1CCCC1 (stereo not given) | -1% | 2%
OCC(O)C1OC(c2ccco2)OC(CO)C1O (stereo not given) | -15% | -8%
CC(C(=O)Nc1nccs1)N1C(=O)c2ccccc2S1(=O)=O (stereo not given) | -9% | -6%
COc1ccc(CNC(=O)CN(Cc2ccccc2)C(=O)CCC(=O)Nc2ccccn2)cc1 | -22% | -6%
COc1cc(NC(=O)Cn2ccsc2=N)cc(OC)c1 | -19% | -18%
NCc1cccc(CNc2ccc([N+](=O)[O-])cc2C(N)=O)c1 | i | -14%
COC(=O)c1c(N)nc(C)n1-c1ccc(OC)cc1 | -23%[1.46 µM] | -11%
O=C(Nc1nc(-c2ccc(F)c(F)c2)cs1)c1cc([N+](=O)[O-])ccc1N1CCOCC1 | i | -6%
COc1c(-c2coc3cc4c(cc3c2=O)CC(O)C(C)(C)O4)ccc2c1C=CC(C)(C)O2 (stereo not given) | 11µM* | 11µM*
NCCNC(=O)Cc1cccc(NC(=O)Cc2ccc(Nc3ncnc4c3ncn4[C@@H]3O[C@H](CO)[C@@H](O)[C@H]3O)cc2)c1 | i | -13%
O=C(C[C@H]1C/C=C\C[C@@H](Cc2ccc(F)cc2)C(=O)O[C@H](c2ccccc2)CNC1=O)N[C@@H](CO)Cc1ccccc1 | -15% | 0%
C/C(=C\c1ccccc1)C(=O)Nc1nc2ccc([N+](=O)[O-])cc2s1 | -13% | -14%
O=C(c1cccc(C(F)(F)F)c1)C1CCCN(C(=O)CN2CCOC2=O)C1 (stereo not given) | i | -3%
Fc1ccc(/C=N/Nc2nnnn2-c2ccccc2)cc1 | i | -7%
CCN(CC)c1ccc(NC(=O)CN2CCN(c3nc(C)cc(C)n3)CC2)cc1 | -28% | -23%
O=C(NCc1cccnc1)C1C2C=CC(C2)C1C(=O)Nc1cccc(C(F)(F)F)c1 (stereo not given) | -9% | -20%
O=C(CN(Cc1ccco1)C(=O)CNS(=O)(=O)c1ccc(F)cc1)NCc1ccccc1 | -16% | -5%
O=S(=O)(Nc1ccc(Br)cc1)N1CCOCC1 | -17% | -6%
O=C1CN(C(=O)COc2ccccc2Cl)c2ccccc2N1 | -17% | -11%
Fc1ccccc1CSc1ncnc2c1ncn2C1CCCO1 (stereo not given) | ? | 7%
O=C1CS/C(=N\c2ccccn2)N1C1CCCCC1 | nt | -2%
COc1ccc(/C=N/OCC(=O)NC(c2ccccc2)c2ccccc2)cc1OC | ? | ?
O=C1CSC(=S)N1c1cccnc1 | 3% | 17%
CCc1ccc(/C(C)=N/NC(=O)c2c[nH]c3ccccc23)s1 | ? | -18%
Cc1nc2cc(NC(=O)NCCC3=CCCCC3)ccc2o1 | ? | -4%
COc1ccccc1-c1n[nH]c(=S)n1N | i | 0%

An excerpt of these results, tab-delimited:
SMILES	Vaccinia mCherry	VACV Venus inh
O=C(NCc1cccnc1)C1C2C=CC(C2)C1C(=O)Nc1cccc(C(F)(F)F)c1 (stereo not given)	-9%	-20%
CCc1ccc(/C(C)=N/NC(=O)c2c[nH]c3ccccc23)s1	?	-18%
O=C1CSC(=S)N1c1cccnc1	3%	17%
O=S(=O)(Nc1ccc(Br)cc1)N1CCOCC1	-17%	-6%
COc1ccc(/C=N/OCC(=O)NC(c2ccccc2)c2ccccc2)cc1OC	?	?
O=C(CN(Cc1ccco1)C(=O)CNS(=O)(=O)c1ccc(F)cc1)NCc1ccccc1	-16%	-5%

Next records
SMILES | Vaccinia mCherry | VACV Venus inh
COc1ccc(OC)c(C(=O)NC(CC(N)=O)c2ccc(NCCN3CCOCC3)c([N+](=O)[O-])c2)c1 (stereo not given) | -15% | -27%
O=c1c2ccccc2nc(-c2ccccc2F)n1-c1ccccc1 | -2% | -14%
COc1ccc(Nc2nn3c(=O)c4cc5c(cc4nc3s2)OCO5)c(OC)c1 | -3% | -1%
COc1ccc(CC(N)c2csc(Nc3ccc(C(C)=O)cc3)n2)cc1 (stereo not given) | 13% | 2%
O=C(CCNC(=O)c1ccc([N+](=O)[O-])cc1)Nc1ccc(F)c(F)c1F | -14% | 6%
Cc1oc(-c2cccc(Cl)c2)nc1CN1CCCC(C(=O)NCCCN2CCOCC2)C1 (stereo not given) | -28% | -24%
Cc1ccc(NC2CCCN(C(=O)CCc3scnc3C)C2)cc1C (stereo not given) | -1% | -14%
COCCOC(=O)c1[nH]c2c(c1C)C(=O)CC(c1ccco1)C2 (stereo not given) | ? | -28%
CCCCC(=O)Nc1ccc(NC(=O)CCCC)nc1 | -3% | -12%
Cc1cccc(N2CCN(CCc3ccccc3)CC2)c1C | -20% | -11%
NC(=O)c1ccsc1NC(=O)c1ccc(N2CCCC2=O)cc1 | -5% | -11%
COC(=O)C1=C(c2ccc(C(C)=O)cc2)C[C@@H]2CC[C@H]1N2C(=O)NC1CCCCC1 | -14% | -8%
Cc1ccccc1CS(=O)(=O)c1cnc2ccccc2n1 | nt | ?
O=C(COc1ccc(Cl)cc1)Nc1ccc2nc(SCC(=O)N3CCOCC3)sc2c1 | -15% | -18%
N#Cc1cc2c(nc1SCC(=O)Nc1cccc(C(F)(F)F)c1)C1CCN2CC1 | -28% | -23%
CCN(C(=O)CN1C(=O)NC2(CCc3ccccc32)C1=O)C1CCCCC1 (stereo not given) | -9% | -6%

In the list so far, these have a cyano group.
SMILES | Vaccinia mCherry | VACV Venus inh
N#CCCCCn1c(-c2cncs2)nc2ccccc21 | -6% | -3%
N#Cc1cc2c(nc1SCC(=O)Nc1cccc(C(F)(F)F)c1)C1CCN2CC1 | -28% | -23%
